Assay outcomes from PubChem BioAssay.
Calb FLC = affects C. albicans growth with fluconazole; C. albicans CaCi-2 (fluconazole-resistant clinical isolate) + fluconazole, Alamar Blue growth, 48 h; growth inhibition, % (concentration not given with the values); actives 0.57% (n = 300,000);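 active means most replicates above 75%; inconclusive means exactly half above 75%; inactive means most below 75%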;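 further: all wells also contain fluconazole at 8 µg/ml as a sub-toxic cotreatment; 0% = median of DMSO wells and 100% = median of geldanamycin control wells; wells of about 8 µL received 7.5 nL stock; the first replicate is given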
ALR inh = human ALR oxidase inhibition via reduced H2O2 | P55789 | purified ALR, DTT oxidation, H2O2 HRP-luminol luminescence | inhibition, % (test concentration not listed) | actives 3.8% (n = 290,000);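 active means mean and each replicate at 75% or more; inconclusive means only one of the two met; inactive means neither met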;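 further: stock transfer was 7.5 nL into about 7.5 µL; 0% = neutral wells and 100% = wells with inactivated enzyme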
Target sequence (P55789 whole entry, looked up): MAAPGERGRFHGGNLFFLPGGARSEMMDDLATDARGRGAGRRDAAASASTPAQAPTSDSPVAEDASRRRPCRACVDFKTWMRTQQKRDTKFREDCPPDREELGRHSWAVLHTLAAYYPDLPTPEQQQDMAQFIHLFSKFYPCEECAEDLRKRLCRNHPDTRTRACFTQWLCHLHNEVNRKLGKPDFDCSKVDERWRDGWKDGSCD
AF4-AF9 inh = inhibitors of human MLL-AF4/AF9 interaction | AlphaScreen, biotin-AF4 peptide binding to FLAG-AF9 | inhibition, % at 10 µM | actives 0.47% (n = 350,000);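 active means every replicate reaching a set inhibition limit, whatever the replicate mean, cut at about 25% in these data; inconclusive means mean inhibition reaches that limit but some replicates miss it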;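 further: 0% = plate neutral control median and 100% = total signal loss; the record names both 10 and 1 µM as test concentration; the first replicate is given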
Target sequence (P42568 whole entry, looked up): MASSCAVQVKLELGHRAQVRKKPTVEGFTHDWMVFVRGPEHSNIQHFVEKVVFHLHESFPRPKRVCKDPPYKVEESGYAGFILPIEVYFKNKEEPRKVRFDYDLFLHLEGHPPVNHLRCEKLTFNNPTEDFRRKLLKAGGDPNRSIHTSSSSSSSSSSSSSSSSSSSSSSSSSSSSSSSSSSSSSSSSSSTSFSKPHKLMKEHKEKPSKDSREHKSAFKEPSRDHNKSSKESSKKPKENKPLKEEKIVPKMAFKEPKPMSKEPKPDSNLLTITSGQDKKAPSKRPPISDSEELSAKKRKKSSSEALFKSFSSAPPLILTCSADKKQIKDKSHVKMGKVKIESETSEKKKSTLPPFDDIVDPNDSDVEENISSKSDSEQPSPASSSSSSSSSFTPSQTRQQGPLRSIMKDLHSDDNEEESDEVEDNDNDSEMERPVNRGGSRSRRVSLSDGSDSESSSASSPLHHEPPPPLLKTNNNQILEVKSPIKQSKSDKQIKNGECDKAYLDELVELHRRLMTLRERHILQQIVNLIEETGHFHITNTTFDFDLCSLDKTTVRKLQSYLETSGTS
Beta cell apopt = beta cell apoptosis inhibition; INS-1E cytokine-induced death, ATP luminescence, 48 h; percent of positive-control rescue, neutral wells zero; protection from apoptosis, % (test concentration not listed); actives 0.8% (n = 300,000); AID 435005;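 active means all replicates at 75% or more, or half of them and the mean; inconclusive means half reach 75% but not the mean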;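 further: 0% = cytokine-treated negative control wells and 100% = positive control rescue; higher means more ATP so stronger rescue from cytokine killing; wells of about 40 µL received 100 nL stock; the first replicate is given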
FGF22 binding = shifts melting point of recombinant human FGF22 | Q9HCT0 | recombinant FGF22 thermal shift, SYPRO orange fluorescence; percent of sucrose octasulfate shift, DMSO zero | calls only at 9.99 µM | actives 1.5% (n = 340,000) | AID 651658;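 active means melting point raised past a set limit in the mean and every replicate; inconclusive means no clear call; three in four hits are not shown here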
Target sequence (Q9HCT0 whole entry, looked up): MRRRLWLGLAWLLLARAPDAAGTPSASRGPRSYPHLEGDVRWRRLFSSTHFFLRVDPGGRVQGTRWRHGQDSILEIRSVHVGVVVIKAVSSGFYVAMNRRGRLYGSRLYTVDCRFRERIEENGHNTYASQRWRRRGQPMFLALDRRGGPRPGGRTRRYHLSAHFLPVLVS
T cruzi repl = blocks replication of Trypanosoma cruzi. T. cruzi beta-gal in NIH3T3, luminescence, 90 h. inhibition, % (no concentration beside the values). actives 1.4% (n = 300,000);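 active means mean inhibition across valid replicates above about 55%, limit read from the data; inconclusive means mean below that limit but half or more replicates reach it; inactive means mean below it, under half of replicates reach it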;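 further: signal also drops with host cell toxicity which is not excluded here; 0% = plate median of DMSO wells and 100% = zero luminescence signal; higher percent means less beta-gal luminescence so fewer parasites; stock transfer was 50 nL into about 50 µL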
rRNA inh HTS = inhibitors of bacterial rRNA selective over humanized ribosomes | actives 1.6% (n = 350,000) | E. coli WT GFP vs humanized-ribosome RFP mutants, fluorescence, 24 h; hits give low values; DMSO median 0, no signal -100 | GFP signal change (wild-type ribosome), % (test concentration not listed);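 active means significant combined selectivity score with lowered wild-type GFP, culture density cut under 30%, mutant RFP and density less affected; inactive means any of these conditions unmet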; further: one replicate is shown; some compounds called inactive have numbers as strong as hits
RanGTP-Imp inh = disruptors of Ran-importin-beta complex formation – biochemical, FRET, CFP-Ran, YFP-importin-beta, homogeneous, primary screen; cell-free CFP-Ran/YFP-importin-beta FRET ratio; inhibition, % (concentration not given with the values); actives 1.1% (n = 300,000);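 active means most replicates above 15%; inconclusive means exactly half above 15%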;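 further: 0% = DMSO wells and 100% = Ran loaded with GDP instead of GTP; wells of about 40 µL received 100 nL stock; the first replicate is given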
rRNA inh HTS OD600 = recorded beside rRNA inh HTS, whose call it bears; OD600 change, %; measured here: OD600 growth;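 optical density of the mix in the first replicate; 0 = DMSO median and -100 = no signal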
rRNA inh HTS RFP = second read-out of rRNA inh HTS, no call of its own (marks repeat the call); RFP signal change, %; measured here: RFP humanized mutant strains;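 first replicate; 0 = DMSO median and -100 = no signal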
Active calls of the source: *; i = inactive; u = inconclusive; x = not tested or not shown; + = active, no number; & = joins results of further samples. The list is partial; the hit share may differ from the screen's.

SMILES	Calb FLC	ALR inh	AF4-AF9 inh	Beta cell apopt	FGF22 binding	T cruzi repl	rRNA inh HTS	rRNA inh HTS OD600	rRNA inh HTS RFP	RanGTP-Imp inh
CC(c1ccon1)N(C)Cc1cn(C)nc1-c1ccc2c(c1)OCCO2 (stereo not drawn)	-8	0	5.6	9	i	-10	-1	8	-0.6	-1.5
COC(=O)C1(CC2CC(c3ccncc3)=NO2)CCN(C(=O)OC(C)(C)C)CC1 (stereo not drawn)	5	x	-13	2	i	8	-8	-3	-6.4	u
Cc1cc2[nH]c(=O)c(=O)[nH]c2cc1S(=O)(=O)N1CCN(c2cccc(Cl)c2)CC1	8	1	-0.1	-4	i	2	-11	-2	-1.3	2.4
CCOc1ccc(NC(=S)N(CCc2c(C)[nH]c3ccc(C)cc23)Cc2ccncc2)cc1	-5	x	8.6	-2	i	31	-4	-3	4.0	-1.9
Cc1c2c(n3c(nc4ccccc43)c1C#N)N(CCN(C)C)CC2	10	5	-0.9	45	+	70*	11	1	12	-2.1
COCc1ccc(C(=O)Nc2ccc(C(=O)O)cc2)o1	0	3	-0.5	-3	i	6	1	-3	6.6	-3.4
Nc1ccc2nc(C3CCCCC3)[nH]c2c1	21	99*	13	-6	i	7	12	22	3.1	1.6
Cc1ccc(CNC(=O)CSc2nc3ccsc3c(=O)n2Cc2ccccn2)cc1	0	-6	-1.2	1	i	11	-3	9	2.4	4.6
Cc1ccc2c(c1)N(CCCC(=O)NCCC1=CCCCC1)C(=O)CO2	1	-3	x	9	x	12	x	x	x	u
CC(C)(C)N(NC(=O)Nc1ccccc1)C(=O)c1ccccc1	-18	-10	x	-1	x	-14	x	x	x	0.5
O=C(CN1CCN(c2cccc(Cl)c2)CC1)NCc1ccccc1	9	18	-8.3	2	i	13	-14	-8	0.5	0.3
Cc1ccc(-c2cc(C(=O)NCCN3CCOCC3)c3ccccc3n2)o1	x	2	-0.3	-5	i	5	10	10	0.7	x
Cc1nnc2sc(-c3ccncc3)nn12	0	-12	x	-1	x	-9	x	x	x	-1.1
Cc1csc(SCC(=O)Nc2nnc(C)s2)n1	-1	-8	-0.5	-5	i	-3	9	11	-1.8	u
CC(C)Sc1nnc2n(CCc3ccccc3)c(=O)c3c4c(sc3n12)COC(C)(C)C4	3	-1	x	21	x	9	x	x	x	-0.3
CC1(C)Cc2sc3c(=O)[nH]c(=S)[nH]c3c2CO1	-1	-2	-2.0	-6	i	-3	-2	2	5.4	3.2
COC(=O)CSC1=NS(=O)(=O)c2ccccc21	1	100*	x	-18	x	-6	x	x	x	0.1
Cc1cc2c(cc1S(=O)(=O)NCCc1ccccc1)NC(=O)CO2	0	x	-1.6	-6	x	2	-6	-4	2.2	3.6
COc1ccc(S(=O)(=O)N2CCOCC2)cc1NC(=O)CCc1c[nH]c2ccccc12	2	-25	3.7	-2	x	10	-2	-2	1.5	0.4
CC1=CC=CN2C1=NC(=O)CC2(C)C(=O)N(CC(=O)NC1CCCC1)c1ccccc1C (stereo not drawn)	-13	-20	-0.3	x	i	-8	1	0	5.1	-2.0
CC(=NCCc1c(C)[nH]c2ccc(OCc3ccccc3)cc12)C1=C(O)CC(c2ccccc2)CC1=O (stereo not drawn)	-7	0	4.0	-1	x	58*	-8	-9	0.3	-2.0
CCOc1cccc(-c2nnc3sc(COc4ccc(C)cc4)nn23)c1	4	0	x	-1	x	-16	x	x	x	-3.2
CC(=O)Oc1ccc2oc(/C=C/N(C)C)c([N+](=O)[O-])c2c1	25	15	x	7	x	4	x	x	x	u
NC(=O)CSC1=Nc2ccccc2C2=NC(c3ccccc3)C(=O)N12 (stereo not drawn)	-2	-6	-3.5	-4	i	-3	8	9	-4.6	1.5
O=C(NNS(=O)(=O)c1ccc(F)cc1)c1ccc([N+](=O)[O-])cc1Cl	6	19	-3.3	-8	i	-16	1	7	-1.4	1.7
CCOc1ccc(NC(=O)Cc2c(C(=O)O)n(C)c3ccccc23)cc1	-5	6	1.0	0	i	-22	-10	-9	-0.8	-1.3
CC1(C)Cc2c(cnn2-c2cccc(F)c2)C(NC(=O)CCc2cnccn2)C1 (stereo not drawn)	6	33	-1.8	0	i	3	-1	2	-2.7	1.6
CCN(CC)CCCNC(=O)c1cn(C)c(=O)c2c1c1ccccc1n2C	-3	-20	4.8	-2	i	4	3	8	3.4	3.7
Nc1[nH]c(=O)ncc1F	x	x	-7.2	-2	i	-15	11	13	-2.0	-3.5
CCOC(=O)NC(Nc1sc2c(c1C(=O)OC)CCN(C)C2)(C(F)(F)F)C(F)(F)F	-1	21	x	-11	x	9	x	x	x	57*
COc1ccc(C(=O)NCCS(=O)(=O)NCc2ccccc2OC)cc1	0	1	-1.3	10	i	2	1	1	1.1	-2.9
O=C(COc1ccccc1[N+](=O)[O-])N1CCN(C(=O)c2ccco2)CC1	-1	-9	-8.9	x	i	-3	11	20	1.6	-1.5
O=C(CNC(=O)c1ccc(Br)o1)NNC(=O)c1cccc(Cl)c1	1	x	-0.1	-1	i	-5	0	11	-1.6	2.9
NC(=O)c1cnccn1	x	x	1.6	x	i	-5	5	12	-1.3	5.5
CN(C(=O)c1cncc(Br)c1)c1c(N)n(Cc2ccccc2)c(=O)[nH]c1=O	x	-13	u	-1	i	7	13	9	1.3	-0.9
Cc1cccc(NC(=O)C2CCCC2)c1	-11	5	x	-4	x	-24	x	x	x	4.3
O=C(CSc1nncc(=O)[nH]1)Nc1cccc([N+](=O)[O-])c1	4	100*	-5.7	-8	i	-15	-1	1	-3.2	2.2
COc1ccc(Cn2nnnc2C(c2cc3ccc(OC)cc3[nH]c2=O)N2CCCCCC2)cc1 (stereo not drawn)	-4	-9	-7.2	-7	i	3	10	-11	30	u
CN(C)c1ccnc(-n2cccc2/C=N/OCc2cccc(F)c2)c1C#N	10	-5	x	-1	x	13	x	x	x	-0.7
O=C(NN=C1CCCCCC1)c1cccs1	-12	-15	-1.1	-4	i	-11	1	-3	-1.5	-2.3

Entries above that contain a cyano group:
SMILES	Calb FLC	ALR inh	AF4-AF9 inh	Beta cell apopt	FGF22 binding	T cruzi repl	rRNA inh HTS	rRNA inh HTS OD600	rRNA inh HTS RFP	RanGTP-Imp inh
Cc1c2c(n3c(nc4ccccc43)c1C#N)N(CCN(C)C)CC2	10	5	-0.9	45	+	70*	11	1	12	-2.1
CN(C)c1ccnc(-n2cccc2/C=N/OCc2cccc(F)c2)c1C#N	10	-5	x	-1	x	13	x	x	x	-0.7

Next section.
SMILES	Calb FLC	ALR inh	AF4-AF9 inh	Beta cell apopt	FGF22 binding	T cruzi repl	rRNA inh HTS	rRNA inh HTS OD600	rRNA inh HTS RFP	RanGTP-Imp inh
CC(C)NC(=O)N(C)C[C@H]1Oc2ccc(NS(=O)(=O)c3cn(C)cn3)cc2C(=O)N([C@H](C)CO)C[C@@H]1C	x	0	-4.2&2.5	2	i	x	0&-1	-8&1	0.0&3.8	x
CSc1ccc(/C=N\NC(=O)CNc2ccc(C)cc2)cc1	0	-3	3.0	-9	i	-2	8	9	-1.7	2.3
COC(=O)c1ccc(Oc2c(C(F)(F)F)oc3c(CN4CCN(C)CC4)c(O)ccc3c2=O)cc1	-2	-7	x	1	x	0	x	x	x	39*
O=C(CCCC(=O)N(CC(=O)NC1CCCC1)Cc1ccccc1)Nc1ccccn1	x	-2	x	-5	x	10	x	x	x	0.3
COC(=O)c1sccc1NC(=O)CN(C)NS(=O)(=O)c1ccc([N+](=O)[O-])cc1	-1	-13	x	-11	x	16	x	x	x	3.2
O=C(CNC(=O)c1ccc(Cl)cc1Cl)NCc1ccccn1	x	-3	0.8	-6	i	x	9	8	2.5	x
Cc1ccnn1CC(=O)N/N=C/c1cccs1	-7	-5	x	-1	x	-5	x	x	x	-0.1
COc1ccccc1-c1sc2cc3c(cc2c1-c1ccc2c(c1)OCO2)OCO3	x	-11	2.4	5	i	x	7	8	-6.9	x
CC(=O)NC(CCS(C)(=O)=O)C(=O)Nc1nccs1 (stereo not drawn)	2	x	x	4	x	-11	x	x	x	0.6
CCCCn1nnc(NC(=O)c2cc3ccccc3o2)n1	-1	-1	x	-7	x	-1	x	x	x	2.9
CCc1c(C2(O)CCCCC2)[nH]c2c(C(=O)OC)cc(Cl)cc12	-3	-3	-2.9	-1	i	21	-16	-12	4.0	-3.7
CC(=O)N1c2ccc(S(=O)(=O)NCCC(=O)Nc3ccccc3C)cc2CC1C (stereo not drawn)	-4	-2	0.4	x	i	2	2	1	-1.2	5.4
CC(C)[C@H](NC(N)=O)C(=O)Nc1ccc2c(c1)CCC2	10	-10	x	-7	x	6	x	x	x	2.8
CCOC(=O)c1sc(S(C)(=O)=O)c2c1CCc1conc1-2	25	u	1.0	-5	i	0	0	6	3.0	-1.2
COc1ccc(C2NC(=O)NC(O)(C(F)(F)F)C2C(=O)c2ccccc2)cc1OC (stereo not drawn)	-6	-6	x	-6	x	-3	x	x	x	-1.4
CS(=O)(=O)N1N=C(c2ccc(Cl)cc2)CC1c1cccs1 (stereo not drawn)	11	-24	x	6	x	6	x	x	x	2.6
COc1ccc(/C=C2\SC(=S)N(CC(=O)NC3CCS(=O)(=O)C3)C2=O)cc1 (stereo not drawn)	0	-1	-0.2	x	i	-22	1	14	-2.5	2.4
O=C1CC(c2ccccc2)CC2=C1C=Nc1ccccc1N2 (stereo not drawn)	-2	-9	-8.6	-11	i	-3	1	11	16	0.4
CCOC(=O)/C=C1\NC(=O)CS1	-3	5	x	-2	x	-15	x	x	x	-1.7
NS(=O)(=O)c1ccc(CCNC(=O)c2ccc(-c3ccccc3)cc2)cc1	-9	-5	-4.3	x	i	-6	9	7	0.9	5.7
CC1CCCCC1NC(=O)c1cc2c(=O)n3ccccc3nc2n1C (stereo not drawn)	u	0	-9.5	2	i	2	4	10	1.3	14
O=C1CNC(=O)/C1=C/c1ccc(Br)cc1	-9	23	-4.2	-1	i	-26	22	22	5.1	2.4
N#CCCN(C(=O)COC(=O)c1cc(S(=O)(=O)N2CCOCC2)ccc1Cl)c1ccc(F)cc1	-3	0	4.0	2	i	2	0	-5	0.6	-1.4
CSC1=N/C(=C/c2ccc(-n3cncn3)cc2)C(=O)N1	9	-4	-7.1	1	i	6	12	10	1.4	-0.7
C=CCn1c(Cc2ccc(OC)cc2)nnc1SCC(N)=O	-2	1	x	-8	x	-23	x	x	x	8.2
Cc1csc(NC(=O)C2CC(=O)N(c3ccc4c(c3)OCCO4)C2)n1 (stereo not drawn)	x	0	1.6	-1	i	x	3	1	-0.3	x
COc1ccccc1C(=O)NC1CCN(C(=O)Nc2ccc(C)cc2)CC1	6	x	1.4	-3	i	-11	0	-2	0.2	1.6
FC(F)(F)c1cnc(N/N=C/c2ccncc2)c(Cl)c1	-3	8	1.8	0	i	-27	4	5	-4.1	2.9
CCCN1CCN(CCCNC(=O)c2cc3c(s2)-c2ccccc2OC3)CC1	-1	-10	6.3	0	i	22	-8	-1	4.1	0.1
COc1ccc(C(=O)N/N=c2\oc3ccccc3cc2C(N)=O)cc1	9	x	-3.2	17	i	-10	7	1	-6.8	4.6
